VDR inh: inhibitors of human vitamin D receptor. 400,000 compounds, 0.93% hits. Potency, µM, for the others: max response, negative = inhibition, most hits filed as inhibitors. VDR-SRC2-3 peptide fluorescence polarization, 2 h. AID 504847. P11473; active = well fitted inhibition curve with a large enough effect; inconclusive = small, poorly fitted or top-dose-only effect, or another doubt; inactive = no such curve, though single readings can be large or run the other way; note: series mostly up to about 120 µM
Target sequence (P11473 whole entry, looked up): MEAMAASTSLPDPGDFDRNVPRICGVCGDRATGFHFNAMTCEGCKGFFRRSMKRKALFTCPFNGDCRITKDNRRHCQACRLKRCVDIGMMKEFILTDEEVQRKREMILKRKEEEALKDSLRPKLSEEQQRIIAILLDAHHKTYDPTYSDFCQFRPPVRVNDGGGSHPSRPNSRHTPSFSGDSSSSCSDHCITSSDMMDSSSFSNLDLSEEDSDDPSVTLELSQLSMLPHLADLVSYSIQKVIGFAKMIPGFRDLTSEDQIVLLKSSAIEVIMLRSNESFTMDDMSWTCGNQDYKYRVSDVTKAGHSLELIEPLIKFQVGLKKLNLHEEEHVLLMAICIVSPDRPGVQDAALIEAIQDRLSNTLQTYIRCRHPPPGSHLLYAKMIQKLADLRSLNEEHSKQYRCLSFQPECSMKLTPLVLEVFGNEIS
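After 23 nl compound addition and a short centrifugation, plates sat for 2 hours at ambient temperature; polarization of fluorescence then indicated loss of VDR binding to peptide SRC2-3.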
* hit, by the source's call; ? = inconclusive; & = joins results of further samples; [ ] = dose if it differs, or a comment. % is set by controls: 0 for no effect and ±100 for the full control effect; potency is the fitted concentration of half-maximal effect.

VDR inh,mol
-2.2%,O=c1c2ccccc2nc(SCc2nnc(-c3ccccc3Br)o2)n1-c1ccccc1
11.4%,CCOc1ccc(CCNC(=O)CSc2nnnn2C)cc1OCC
9.5%,CCCCNC(=O)c1ccc(CS(=O)(=O)Cc2ccccc2F)o1
-9.1%,COc1ccc(CCNC(=O)C(=O)NCC2OCCCN2S(=O)(=O)c2cc(C)ccc2C)cc1 (configuration not stated)
13.6%,CC(=O)Nc1ccc(Nc2ccc3c4c(cc(=O)n3C)-c3ccccc3C(=O)c24)cc1
-1.8%,Cc1c(C)c2c(c(C)c1O)CCC(C)(C(=O)O)O2 (configuration not stated)
-12.1%,CCN(CC)C(=O)Cn1c(=O)n(C)c2ccccc21
-12.5%,Cc1ccc([N+](=O)[O-])cc1S(=O)(=O)NCCc1cn2ccccc2n1
-10.1%,Cc1ccc(Cl)cc1NC(=O)c1ccccc1OCC(=O)Nc1ccc(Cl)cc1
43.3%[activator],CN(C)c1ccc(C=c2c3ccccc3n3c2c2c([n+]3C)CCCC2)cc1
-6.9%,COc1ccc2c(C)c(CCC(=O)NCc3ccccc3Cl)c(=O)oc2c1C
-7.3%,CCOP(=O)(c1ccccc1)C(O)c1ccc([N+](=O)[O-])cc1 (configuration not stated)
-9.1%,CCNc1[nH]c(=O)n(C)c(=O)c1N=O
-3.0%&5.2%,Cc1ccc(-c2cc(=O)c3ccc(Cl)cc3[nH]2)cc1
-4.2%,COc1ccc(CCNC(=O)CCC(=O)NC2CCCCC2)cc1OC
-7.8%,CN(C)CCN1C(=O)C(=O)/C(=C(/O)c2ccccc2)C1c1ccccc1F (configuration not stated)
9.5%,COc1ccc(-n2nc(C(=O)NCC(=O)Nc3cc(Cl)c(OC)cc3OC)c3ccccc3c2=O)cc1
4.2%,COc1cc2c(cc1OC)C(COc1ccc(F)cc1)N(C(=O)C(C)C)CC2 (configuration not stated)
3.9%,CC(=O)N1CCc2cc(S(=O)(=O)NCCC(=O)NC3CCN(Cc4ccccc4)CC3)ccc21
14.6%,CCOC(=O)c1sc(-c2ccc(OC)cc2)cc1N
6.2%,CCCCc1c(C)[nH]c(=S)[nH]c1=O
-17.8%,CCCn1c(SCC(=O)NC(C)C)nc2sc3c(c2c1=O)CCC3
10.1%,CCC1CCC(N2CCN(c3ccc(F)cc3)CC2)CC1 (configuration not stated)
-6.6%,Cc1ccccc1C(=O)N=c1ccn(-c2nc3ccccc3nc2NS(=O)(=O)c2ccccc2)cc1
3.8%,O=C(c1ccccc1)c1cccc(NC(=O)C2CC2)c1

More compounds follow:
VDR inh,mol
-6.7%,Cc1ccc(S(=O)(=O)N2CCN(C(=O)CSc3nc4ccccc4c(=O)[nH]3)CC2)cc1
10.4%,O=C(CSc1nnc2c(n1)[nH]c1ccc(F)cc12)NC1CC1
-11.4%,Cc1ccc(N2CCN(C(=O)c3cn(CC4CCCCC4)nn3)C(C)C2)cc1 (configuration not stated)
-3.3%,Cc1ccc(Cl)cc1N(CC(=O)NC1CCCC1)C(=O)c1csnn1
-4.5%,CCOC(=O)N1CCC(=NNC(=O)c2cc3ccccc3cc2O)CC1
12.4%,CC1(C)C2CC=C(/C=N/n3cnnc3)C1C2 (configuration not stated)
3.9%,COc1cc(NC(=O)[C@@H](NC(=O)N2CCn3c2nc2ccccc23)C(C)C)cc(OC)c1
7.6%,CC(C)CC(=O)N1CCN(Cc2ccc3c(c2)OCO3)CC1
-2.1%&-15.8%,O=S(=O)(c1ccc(-c2ccccc2)cc1)N1CCOCC1
-2.7%,Cc1ccc(C(=O)NC(=S)Nc2nc(-c3cccc([N+](=O)[O-])c3)cs2)c(Cl)c1
-0.9%,Clc1cccc(Cl)c1Cn1c(-c2cccnc2Cl)nc2ccccc21
2.5%,O=CNCCCc1nc2ccccc2n1Cc1cccc2ccccc12
7.6%,NNC(=O)c1ccc(COc2ccccc2)cc1
-1.0%,c1ccc(-c2nc(C3CCCCC3)no2)cc1
6.2%,CC(C)[C@H](NC(=O)c1ccc([N+](=O)[O-])cc1Cl)C(=O)N1CCN(C/C=C/c2ccccc2)CC1
1.6%,Cc1ccc(NC(=O)c2ccc3nc(Cc4ccccc4)oc3c2)cc1F
5.8%,C=CCOC(=O)C1C(=O)CC(C)(O)C(C(=O)OCC=C)C1c1ccc(OCC)cc1 (configuration not stated)
-21.3%,Cc1cc(C)n(CCc2nc(-c3ccc(C(C)(C)C)cc3)cs2)n1
8.6%,Cc1oc2c(c1C(=O)NCc1cc(C(=O)O)co1)CCCC2
-13.9%,Cc1cccc(OC(=O)CCN2C(=O)C3C4C=CC(C5CC45)C3C2=O)c1C (configuration not stated)
21.0%,COc1ccc(NC(=O)COC(=O)C2CC2)cc1S(=O)(=O)N1CCCCC1
6.4%,O=C(Nc1ccc(Br)cc1Cl)c1ccc(OCC2CCCO2)cc1 (configuration not stated)
-23.0%,NCc1ccccc1CC(=O)N[C@@H]1C(=O)N2C(C(=O)O)=C(CSc3nnnn3CC(=O)O)CS[C@@H]12
-7.1%,Nc1nc2ccc(Oc3ccccc3)cc2s1
-11.2%,CC(C)c1ccc(CN(C)C(=O)c2ccc(S(=O)(=O)NCc3ccco3)cc2)cc1

Next section:
VDR inh,mol
11.8%,Cc1cc(C(=O)CSc2nc(N)cc(=O)[nH]2)ccc1F
6.8%,CCCCc1ccc(NC(=S)NCCc2ccc(F)cc2)cc1
-21.5%,Cn1c(=O)n(C)c2cc(C(=O)Nc3ccc(Br)cc3)ccc21
3.5%,CCn1c(SCC(=O)Nc2nnc(C)s2)nnc1-c1ccco1
-17.8%,CN(C)CCCN(C(=O)c1ccc(S(=O)(=O)N(C)C)cc1)c1nc2ccc(F)cc2s1
8.0%,OCC1(O)OC[C@@H](O)[C@H]1O (some centres not stated)
-10.5%,CCOC(=O)c1sc2cc([N+](=O)[O-])cc(SCC(C)C)c2c1N
-10.0%,COc1c(S(=O)(=O)NCCN2CCOCC2)ccc(Cl)c1Cl
-2.8%,CC1(C)CC(NCc2ccccc2)CCO1 (configuration not stated)
-1.2%,NS(=O)(=O)c1cccc(NS(=O)(=O)c2cccc(C(F)(F)F)c2)c1
11.9%,C=CCc1ccc(OCCOCCOc2ccccc2[N+](=O)[O-])c(OC)c1
2.4%,CCOC(=O)N1CCC(NS(=O)(=O)c2ccc3c(c2)CCN3C(C)=O)CC1
1.3%,CCN(C(=O)C1CCCCC1)c1nnc(-c2cccnc2)s1
-16.0%,COc1cccc(-c2nc(CS(=O)(=O)CC(=O)N3CCCCC3)c(C)o2)c1
-7.1%,CCC(CO)NCC#Cc1ccccc1 (configuration not stated)
6.3%,CCOC(=O)C1CCN(C(=O)CSc2nc(N)cc(=O)[nH]2)CC1
0.8%,O=C(O)CCC(=O)N1CCN(c2nc(-c3ccccc3)c3cc(Br)ccc3n2)CC1
-13.7%,CN(c1ccc2nc3ccccc3c(=O)n2n1)C1CCCCC1
-3.2%,COC(=O)c1ccc(CSc2nnc(-c3ccccc3)n2C)o1
1.3%,COc1ccccc1N1CCN(c2cnccn2)CC1
-15.5%&6.3%,COc1cc(OC)cc(C(=O)Nc2ccc3nc4n(c(=O)c3c2)CCCCC4)c1
-28.4%,Cc1ccc(NC(=S)N(CCN(C)C)C(C)c2ccco2)cc1Cl (configuration not stated)
-14.6%,CCOC(=O)C1CCN(c2c(NCc3ccc(C(=O)N(C)Cc4ccccc4)cc3)c(=O)c2=O)CC1
-8.9%,Cn1c(=O)c(-c2ccc(F)cc2)nc2cnc(Oc3ccccc3)nc21
?,O=Cc1ccc(OC(=O)c2cc(Cl)nc3ccccc23)cc1

Carrying on.
VDR inh,mol
-1.2%,Cn1c(C(=O)N2CCCc3ccccc32)cc2sccc21
-1.7%,CC(=O)NC(C)C(=O)OCC(=O)c1ccc(Cl)s1 (configuration not stated)
2.9%,Cc1ccccc1CC(=O)Nc1cccnc1
0.8%,CC(NC(=O)CCNC(=O)c1ccco1)c1ccccc1 (configuration not stated)
-0.7%,CC(=O)c1cccc(NC(=O)c2ccccc2N(C)S(=O)(=O)c2ccc(C)cc2)c1
-7.2%,O=C(c1cc(S(=O)(=O)N2CCOCC2)ccc1F)N(CCc1ccccc1)Cc1ccccc1
-5.8%,CC(C)(C)NC(=O)c1ccc(COc2ccc(Cl)cc2Cl)o1
-2.5%,O=C(c1ccc(F)c(S(=O)(=O)N2CCOCC2)c1)N1CCN(c2ncccn2)CC1
-18.1%,C=CCN(c1ccccc1)S(=O)(=O)c1cccc(C(=O)NCC2CCCO2)c1 (configuration not stated)
-5.2%,N#CCCn1c(=O)c(-c2ccccc2)nc2cnc(Nc3ccccc3)nc21
10.3%,Cc1cccc(NC(=O)COC(=O)C(NC(=O)c2cccc(S(=O)(=O)N3CCOCC3)c2)C(C)C)c1 (configuration not stated)
10.1%,COCCCNC(=O)C1CC(=O)N(Cc2ccc(OC)cc2)C1 (configuration not stated)
-11.1%,CCOc1cc(C(=O)NC2=NCCS2)cc(OCC)c1OCC
-10.8%,Cc1ccc(C(=O)CSc2nnc(-c3ccncc3)n2C)cc1
-2.7%,Cc1cnc(C(=O)OCC(=O)NC2CCCCC2)cn1
3.8%,CCCCOCP(=O)(CC)COCCCC
-0.6%,CNCc1ccccc1Sc1cccc2ccccc12
8.3%,COc1ccc(C2(c3ccc(OC)cc3)NC(=O)N(CC(=O)Nc3cc(C)ccc3OC)C2=O)cc1
6.6%,O=C(COC(=O)c1nc(Cl)ccc1Cl)NC1CCCCC1
2.4%,O=C(COC(=O)CCc1ccc(S(=O)(=O)N2CCCCC2)cc1)Nc1cccc2ccccc12
?,CCOc1ccc(/C=C2\SC(=S)N(CCCC(=O)NCCCN3CCOCC3)C2=O)cc1
13.0%,Cc1ccc(-c2nc(SCCOc3ccccc3C)n3[nH]c(=O)cc3n2)cc1
6.7%,CCOC(=O)c1c(C)oc2c1cc(O)c1ccccc12
8.0%,Cc1nc(N2CCOCC2)[nH]c(=O)c1C
-1.3%,Cc1ccc2nc(NC(=O)CN3C(=O)NC4(CCCC4)C3=O)sc2c1

(continued)
VDR inh,mol
-2.4%,COc1ccc(C(=O)COC(=O)c2cnc(C)cn2)c(OC)c1
11.0%,CCC(C)NC(=O)C(=O)NCc1ccncc1 (configuration not stated)
5.7%,CN(C(=O)C1CCN(c2ncnc3c2nc2n3CCCCC2)CC1)C1CCCCC1
-3.4%,COc1ccc(SCc2cc(=O)c3ccc(C)c(C)c3[nH]2)cc1
-0.2%,O=C(COC(=O)c1ccco1)Nc1ccc(Cl)cn1

Molecules listed so far that have an aryl methoxy group (17):
VDR inh,mol
-9.1%,COc1ccc(CCNC(=O)C(=O)NCC2OCCCN2S(=O)(=O)c2cc(C)ccc2C)cc1 (configuration not stated)
-6.9%,COc1ccc2c(C)c(CCC(=O)NCc3ccccc3Cl)c(=O)oc2c1C
-4.2%,COc1ccc(CCNC(=O)CCC(=O)NC2CCCCC2)cc1OC
9.5%,COc1ccc(-n2nc(C(=O)NCC(=O)Nc3cc(Cl)c(OC)cc3OC)c3ccccc3c2=O)cc1
4.2%,COc1cc2c(cc1OC)C(COc1ccc(F)cc1)N(C(=O)C(C)C)CC2 (configuration not stated)
14.6%,CCOC(=O)c1sc(-c2ccc(OC)cc2)cc1N
3.9%,COc1cc(NC(=O)[C@@H](NC(=O)N2CCn3c2nc2ccccc23)C(C)C)cc(OC)c1
21.0%,COc1ccc(NC(=O)COC(=O)C2CC2)cc1S(=O)(=O)N1CCCCC1
-10.0%,COc1c(S(=O)(=O)NCCN2CCOCC2)ccc(Cl)c1Cl
11.9%,C=CCc1ccc(OCCOCCOc2ccccc2[N+](=O)[O-])c(OC)c1
-16.0%,COc1cccc(-c2nc(CS(=O)(=O)CC(=O)N3CCCCC3)c(C)o2)c1
1.3%,COc1ccccc1N1CCN(c2cnccn2)CC1
-15.5%&6.3%,COc1cc(OC)cc(C(=O)Nc2ccc3nc4n(c(=O)c3c2)CCCCC4)c1
10.1%,COCCCNC(=O)C1CC(=O)N(Cc2ccc(OC)cc2)C1 (configuration not stated)
8.3%,COc1ccc(C2(c3ccc(OC)cc3)NC(=O)N(CC(=O)Nc3cc(C)ccc3OC)C2=O)cc1
-2.4%,COc1ccc(C(=O)COC(=O)c2cnc(C)cn2)c(OC)c1
-3.4%,COc1ccc(SCc2cc(=O)c3ccc(C)c(C)c3[nH]2)cc1

Another view of part of the listing above:
Structure,VDR inh
COc1ccc(SCc2cc(=O)c3ccc(C)c(C)c3[nH]2)cc1,-3.4%
O=C(COC(=O)c1ccco1)Nc1ccc(Cl)cn1,-0.2%

Compound activity deposited in PubChem by National Center for Advancing Translational Sciences (NCATS).

Not all compounds are listed; rates above refer to the full screens.
